Assay outcomes deposited in PubChem by PCMD.
Biofilm kill mix – mixture kills Candida albicans biofilm cells | inhibition, % at 7.6 µM | C. albicans biofilm persisters + clotrimazole, fluorescence viability; primary screen in compound mixtures of four per well | hit rate 0.02% among 120,000 | AID 1242;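 active means inhibition above 30.3% in the primary screen of four-compound pools, then above 30% when the compound was retested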;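 further: compounds exposed to preformed 24 h biofilms for 48 h; the number belongs to the whole pool; some results filed as inactive read as strong as hits; inactives centre near 12; 0% = biofilm with clotrimazole alone and 100% = kill control; retested singly at about 60 µM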
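Test system: C. albicans biofilms. Buffer or medium: RPMI/MOPS medium, pH 7.0. Timing: 48 h compound exposure at 37 °C. Technique: Alamar Blue fluorescence. Evaluation: percent inhibition of biofilm viability.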
The depositor's hits bear a star. An excerpt, so the mix of outcomes need not match the whole.

canonical_smiles | Biofilm kill mix
O=C(Nc1ccc(Cl)c(Cl)c1)c1ccc(Cn2c(=O)[nH]c3ccsc3c2=O)cc1 | -0.1
Nc1ccccc1SC1CC(=O)N(c2ccccc2Cl)C1=O (stereo not drawn) | 9.1
Cc1ccnc(NC(=O)CCCOc2ccccc2)c1 | 20.7
COc1cc(C[C@H](C)[C@H](C)Cc2ccc3c(c2)OCO3)ccc1O | 10.8
CCOC(=O)N1CCC(N2CCN(Cc3ccc(C)o3)C(CCO)C2)CC1 (stereo not drawn) | 1.1
COc1ccc(-c2csc(NC(=O)COC(=O)Cc3ccc(Cl)cc3Cl)n2)cc1 | 15.8
COC(=O)c1sc2nc(C)nc(SCC(=O)N3CCC(C(=O)O)CC3)c2c1C | -2.4
O=C(NC1(C(F)(F)F)N=C2SCCN2C1=O)c1cccnc1 (stereo not drawn) | 3.1
CN(Cc1cnccn1)C(=O)CC1C(=O)NCCN1CC(c1ccccc1)c1ccccc1 (stereo not drawn) | 15.2
Cc1ccc(C(=O)OCCc2sc[n+](Cc3ccccc3)c2C)cc1 | 18.6
C#CCNC(=O)C1=C[C@H](C2CCCCC2)C[C@H](OCCCCO)O1 | 11.9
Cc1cc(C(=O)COC(=O)c2ccc(O)cc2)c(C)n1CCc1ccc(F)cc1 | 17.1
O=C(C1CC1)N1CCN(c2ccnc3cc(Cl)ccc23)CC1 | 0.6
O=C(CSc1nc2c(c(C(F)(F)F)n1)CCc1ccccc1-2)NCc1ccc(F)cc1 | 18.0
O=S(=O)([O-])CCC[n+]1c(/C=C\Nc2ccccc2)oc2ccc(-c3ccccc3)cc21 | -0.5
C/C=C(\C)C(=O)NNC(=O)c1sc(-c2ccccc2)nc1C | 24.7
COc1ccc(C(=O)Oc2cccc(/C=N/NC(N)=S)c2)cc1 | 10.3
COc1ccc2cc1Oc1ccc(cc1)CC1c3c(cc(OC)c4c3Oc3cc5c(cc3O4)CCNC5C2)CCN1C (stereo not drawn) | -3.2
Oc1ccc(N=Nc2nc(-c3ccccc3)c(-c3ccccc3)[nH]2)cc1 | 5.9
COc1ccc(C2CC(c3cccs3)=Nc3ccccc3S2)cc1 (stereo not drawn) | 9.4
CCC(C)/C(C)=N/Nc1ccc(S(N)(=O)=O)cc1[N+](=O)[O-] (stereo not drawn) | 17.0
NC(=O)NOCc1ccccc1 | 18.1
COc1ccc(N=C2SC(CC(=O)Nc3ccc(F)cc3)C(=O)N2Cc2ccco2)cc1 (stereo not drawn) | 8.6
Cc1cccc(NC(=O)c2sc(C)nc2C)c1 | 2.8
CC(C)C(NC(=O)c1cccnc1)C(=O)O (stereo not drawn) | 25.7
COc1ccc(NC(=O)COC(=O)c2cc(OC)c(OC)c(OC)c2)c([N+](=O)[O-])c1 | 19.1
CC[C@H](NC(=O)c1c(C)c(-c2ccccc2)nc2ccccc12)c1ccccc1 | 16.3
CCOC(=O)N1CCC(c2cc(=O)n(-c3ccccc3)[nH]2)CC1 | 12.3
C/C(=N/NC(=O)c1ccncc1)c1cc2ccc(O)cc2oc1=O | 18.8
Oc1c(Cl)cc(Cl)cc1/C=N/NC(=S)NC1CC2C=CC1C2 (stereo not drawn) | 4.8
COC(=O)Cn1c(C)c(C#N)c2ccccc21 | 14.3
CN(CC(=O)Nc1ccc(F)cc1[N+](=O)[O-])Cc1ccccc1 | 7.2

Sorted by heavy-atom count (smallest number first): part of the list above
canonical_smiles | Biofilm kill mix
CCOC(=O)N1CCC(c2cc(=O)n(-c3ccccc3)[nH]2)CC1 | 12.3
C/C(=N/NC(=O)c1ccncc1)c1cc2ccc(O)cc2oc1=O | 18.8
COc1ccc(NC(=O)COC(=O)c2cc(OC)c(OC)c(OC)c2)c([N+](=O)[O-])c1 | 19.1

Continuation.
canonical_smiles | Biofilm kill mix
O=C(Cc1cccs1)N1CCN=C1SCc1cccc(F)c1 | 19.9
N/C(=N\c1nc2ccccc2o1)NC(=O)c1cccc(Cl)c1 | 23.4
CC(=O)O[C@@H]1[C@H](OC(=O)CC(C)C)c2c(ccc3ccc(=O)oc23)OC1(C)C | 12.6
CCc1ccccc1NC(=O)CN(C)C(=O)CSc1nn(-c2ccccc2)c(=S)s1 | 18.2
CN(N)c1nc(C(F)(F)F)nc2ccccc12 | 3.6
CC1(C)CC(CCC(=O)NC(=S)Nc2ccccc2Cl)C(=O)O1 (stereo not drawn) | 8.5
CCNc1nc(NCC)nc(Oc2ccc(C(=O)OC)cc2)n1 | 22.1
O=C1/C(=C/c2cccnc2)SC(=S)N1c1ccc(F)cc1 | 10.6
CC(C)c1nnc(NC(=O)Cc2ccc(Br)cc2)s1 | 6.8
O=C(CCS(=O)(=O)Cc1ccccc1)NCCc1ccccc1 | 16.7
CC(=O)c1cccc(CN2CCN(CCC(C)C)C(CCO)C2)c1 (stereo not drawn) | 22.2
CCOC(=O)CSCC(=O)Nc1nnc(-c2cccc([N+](=O)[O-])c2)s1 | 14.4
COC(=O)c1n[nH]nc1-c1ccccc1 | 12.1
COCCOc1ccc(C(F)(F)F)cc1NC(=O)c1ccccc1 | 14.8
CCOC(=O)/C(C#N)=N/Nc1ccccc1C#N | 23.9
N#CC1=C(N)OC2=C(C(=O)CCC2)C1c1ccoc1 (stereo not drawn) | 5.2
O=C(/C=C/c1ccc2c(c1)OCCO2)c1ccc(O)cc1 | 22.0
Cc1nn(C)cc1CNCc1ccc(OCC(O)CN(C)Cc2ccccc2)cc1 (stereo not drawn) | -1.8
Cc1cc(C)cc(NC(=S)NN)c1 | 13.1
C=CCSc1nc2sc3c(c2c(=O)n1CC=C)CCc1ccccc1-3 | 12.2
CN(C1CCCCC1)S(=O)(=O)c1ccc(C(=O)N2CCN(c3nc4ccccc4s3)CC2)cc1 | 7.7
O=C(NCc1nc(-c2ccc(C(F)(F)F)cc2)no1)Nc1ccc(OC(F)(F)F)cc1 | 14.4
CC(C)Oc1cc(N)c(Cl)cc1Cl | 17.1
CC1CCN(C(=O)CSCC(=O)O)CC1 | 21.8
O=C(CCc1ccccc1)NNc1ccc(F)cc1 | 21.7
N#Cc1c(OCC(=O)c2ccccc2)nc2c(c1-c1ccco1)CCc1ccccc1-2 | 10.1
Oc1ccc2ccccc2c1C=NC1CCCCC1 | 11.9
C=C(C)CNC(=S)N/N=C(\C)c1ccc(OC)cc1 | 11.3
COc1cc(NC(=O)CN(C)Cc2cccc(F)c2)c(C)cc1[N+](=O)[O-] | 10.9
O=C(CCC(=O)N1CCN(S(=O)(=O)c2cccc(F)c2)CC1)c1cccs1 | 11.3
O=C(O)CSCC(=O)NCc1ccccc1Cl | 9.6
Cc1ccc(NC(=O)Cc2ccccc2Cl)cc1S(=O)(=O)N(C)C | 4.0
Cc1cc(C)nc(NS(=O)(=O)c2ccc(NC(=O)CSc3ncn[nH]3)cc2)n1 | 9.5
CCOc1ccc2oc(C(=O)NC3CCN(Cc4ccccc4)CC3)c(C)c2c1 | 13.4
COc1ccc(/C(C)=N/NC(=O)Cc2c(C)nc(C)[nH]c2=O)cc1 | 17.7
N#Cc1ccc(NC(=O)COC(=O)CCc2nc3ccccc3c(=O)[nH]2)cc1 | 18.0
COc1ccc(/C=C/CN2CCN(Cc3ccc(C)cc3)C(CCO)C2)cc1 (stereo not drawn) | -0.5
C=CC(C)(C)c1cc2cc3ccoc3cc2oc1=O | 12.3
O=C(C[n+]1ccccc1)Nc1ccccc1Br | 12.2
Cc1ccc(-c2nc3ccccc3o2)cc1NC(=S)NC(=O)c1cc2ccccc2o1 | 12.6
COC(CNC(=O)c1c[nH]c2ccc(S(=O)(=O)N3CCC4(CC3)OCCO4)cc2c1=O)OC | 17.0
Nc1ccn(Cc2ccccc2)n1 | 19.0
CCCCOc1ccc(NC(=O)CCSc2nccn2C)cc1 | 2.9
Cc1ccc(Nc2nnc(SCC(=O)Nc3cccc(S(=O)(=O)NC4=NCCCCC4)c3)s2)cc1 | 0.1
CN1CCN(C(=O)C2=C[C@H](c3csc4ccccc34)C[C@H](OCCCCO)O2)CC1 | 1.0
C(=N\NC1=Nc2cccc3cccc1c23)/c1ccccn1 | 9.6
Cn1cc(C(=O)NCc2ccc(F)cc2)c(=O)c2cc(S(=O)(=O)N3CCCCC3)ccc21 | 19.3
Cc1ccc(S(=O)(=O)/N=S(/c2ccccc2)C(C)C)cc1 (stereo not drawn) | 14.0
CCN(CC)CCn1c(C)nc2c(sc3nc4c(cc32)COC(C)(C)C4)c1=O | 18.1
CCn1cc(C(=O)OCC(=O)NCc2ccccc2Cl)c(=O)c2ccc(C)nc21 | -4.6
CCOCCCn1c(SCc2nc3ccccc3s2)nc2ccccc2c1=O | 7.3
CCCCNC(=S)NCCN1CCN(C(=S)NCCCC)CC1 | 20.7
C/C(=N\NC(N)=S)C1(C)CC2(CC(C)(C)OC2=O)C(=O)O1 (stereo not drawn) | 21.7
COCCCNC(=O)CSc1nc2ccccc2c(=O)n1Cc1ccc2c(c1)OCO2 | 15.1
CCN(CC)CCN(C(=O)Cn1nnc(-c2ccc(C)o2)n1)C(C(=O)NC(C)(C)C)c1cccs1 (stereo not drawn) | 15.2
CCO[C@H]1OC(C(N)=O)=C[C@@H](c2coc3ccccc3c2=O)[C@@H]1CCCO | 20.9

(continued)
canonical_smiles | Biofilm kill mix
O=C(Cn1nnc(-c2ccc(F)cc2)n1)N1CCCCC1 | 3.1
CCCCn1c(=S)[nH]c2ccc(N3CCOCC3)cc2c1=O | 5.3
Cc1ccccc1-n1c(SCC(=O)NCc2cccs2)nc2ccccc2c1=O | 17.3
CC(NC(=O)/C(=C\c1ccco1)NC(=O)c1ccccc1Br)C(=O)O (stereo not drawn) | 13.7
CN(C[C@H](Cc1ccccc1)N(C[C@H](Cc1ccccc1)N(CCc1cc(C(F)(F)F)cc(C(F)(F)F)c1)N=O)N=O)N=O | 20.6
C=CCOc1cccc(C(=O)N2CCCC(CCC(=O)NCc3ccccc3F)C2)c1 (stereo not drawn) | 10.4
Cc1cc2cc(CNC(=O)COc3ccccc3)ccc2n1C | 21.3
Fc1ccc(-n2nnc(-c3cccnc3Cl)n2)cc1 | 12.8
CC1CCCCN1CC(=O)Nc1cc(S(=O)(=O)N2CCOCC2)ccc1N1CCCC1 (stereo not drawn) | -2.3
NNC(=O)CCN(Cc1ccco1)S(=O)(=O)c1ccc(Cl)cc1 | 12.4
CC(C)(C)NC(=O)Cn1nc(C(F)(F)F)c2c1CCCC2 | 9.2
Cc1ccc(-n2cc(C(=O)c3cc(Cl)ccc3O)cc(C#N)c2=O)cc1 | 10.8
CC(C)(C)C(=O)CN1C2=NCCN2c2ccccc21 | 14.9
Cc1cccc(-c2nc3cc([N+](=O)[O-])ccc3o2)c1 | 28.2
CCOc1ccc(NC(=O)c2cn(CC(C)C)c(=O)c3c2c2ccccc2n3C)cc1 | -1.0
O=C(C1=C[C@H](c2ccccc2)C[C@H](OCc2ccc(CO)cc2)O1)N1CCCCCCC1 | 6.7
C=CCn1c(COc2ccccc2F)nnc1SCC(=O)c1c[nH]c2ccccc12 | 16.4
Cc1c(-c2ccccc2Cl)nc2ccccc2c1C(=O)O | 20.8
O=C(O)/C=C/C(=O)NCc1ccccc1 | 15.3
O=C(Oc1cccnc1)c1ccccc1[N+](=O)[O-] | 20.8
COc1ccc(OC)c(-c2csc(NC(=O)Cc3cccs3)n2)c1 | 13.0
Cn1cc([N+](=O)[O-])c(C(=O)NCc2ccco2)n1 | 6.0
Cc1cccc(NC(=O)COc2cccc3c2CCN(Cc2ccccc2)C3=O)c1C | 2.9
O=C(O)c1ccccc1OCc1ccccc1Br | -19.3
Cc1ncc([N+](=O)[O-])n1CC(=O)Nc1ccccc1 | 8.6
CCn1cc(CNC(=O)c2cc(COc3ccc(F)cc3Cl)on2)cn1 | 16.1
Cc1nc(SCC(=O)NC(C)(C)C)c2c(-c3cccs3)csc2n1 | 5.5
CC(=O)CCS(=O)(=O)c1ccc(Oc2ccc(S(=O)(=O)CCC(C)=O)cc2)cc1 | 10.8
CS(=O)(=O)N1N=C(c2ccco2)CC1c1cccc([N+](=O)[O-])c1 (stereo not drawn) | 10.4
CN(c1ccccc1)c1nc(N)c([N+](=O)[O-])c(NCc2ccco2)n1 | 11.9
Cc1noc(C)c1S(=O)(=O)N1CCCC(C(=O)c2cccc(OC(C)C)c2)C1 (stereo not drawn) | 7.0
CC(C)CC(=O)N(Cc1ccc(F)cc1)C1CCS(=O)(=O)C1 (stereo not drawn) | 27.3
CCC(C)NC(=O)/C=C1\Sc2ccccc2NC1=O (stereo not drawn) | 14.8
COc1ccc(CCNC(=O)CCc2ccc(S(=O)(=O)NCC(C)C)cc2)cc1OC | 10.8
CC1(C)Cc2c(sc(/N=C/N3CCCCCC3)c2C#N)C(C)(C)N1 | 6.3
COc1ccc(Br)cc1CNc1ccc2[nH]c(=O)[nH]c2c1 | 8.7
Cc1[nH]c2ccccc2c1C(c1ccncc1)N1CCN(c2ccc(F)cc2)CC1 (stereo not drawn) | 13.8
O=C(NCc1ccco1)c1cc([N+](=O)[O-])ccc1N1CCOCC1 | 12.7
COc1cc2cc(CN(CCN3CCOCC3)C(=O)Nc3ccc(F)cc3)c(=O)[nH]c2cc1OC | 25.2
O=C(Nc1cc2cccc([N+](=O)[O-])c2oc1=O)c1cccs1 | 5.1
O=C(/C=C/c1ccccc1[N+](=O)[O-])c1ccc(F)cc1 | 12.3
Fc1ccc(NC(=S)N2CCN(c3cccc(C(F)(F)F)c3)CC2)cc1 | 8.0
COc1cccc(Nc2nc3cc(OC)ccc3cc2C#N)c1 | 1.4
CC(=O)Oc1ccccc1C1=NN(C(=O)/C=C/c2ccccc2)C(c2ccccc2)C1 (stereo not drawn) | 18.6
COc1ccc(Cl)cc1C(=O)Nn1c(-c2cccs2)nc2ccccc2c1=O | 18.9
